# Yeast UUG start = alters start codon recognition fidelity in yeast | S. cerevisiae UUG-firefly luciferase reporter, luminescence/redox ratio | activity score, % at 18.7 µM | 350,000 tested, 0.13% active;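 active means replicate mean at a twofold rise or more, about +100% in these data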;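 further: firefly luciferase made from a UUG start codon reports start codon fidelity; reporter light over untreated wells divided by growth signal over untreated wells; some hits fall short of that in this replicate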
# HIV Env fusion = HIV envelope-mediated fusion inhibition; HeLa-JRFL Env/CEM21 cell fusion, luciferase; inhibition, % at 12.3 µM; 360,000 tested, 1.1% active;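 active means mean replicate inhibition score of at least 50 and every replicate individually at or above 50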;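 further: 0% = plate neutral controls and 100% = maraviroc near 300 nM; one replicate is shown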
# Starred values were filed as active, the others as inactive; [ ] = remark or other dose. This is a subset, so the mix of outcomes need not match the whole.
# Sample of the layout:
SMILES,Yeast UUG start,HIV Env fusion
C[C@@H]1CN([C@H](C)CO)C(=O)c2cc(NC(=O)Cc3ccccc3)ccc2O[C@@H](C)CCCCO[C@@H]1CN(C)C(=O)Cc1ccccc1,2.9,-12.1[16.7 µM]
Cc1ccc(S(=O)(=O)N(C)C[C@@H]2OCCCC[C@@H](C)Oc3ccc(NC(=O)NC4CCCCC4)cc3C(=O)N([C@@H](C)CO)C[C@@H]2C)cc1,-6.2,-5.8[16.7 µM]
COc1ccc(NC(=O)Nc2ccc3c(c2)C(=O)N([C@@H](C)CO)C[C@H](C)[C@@H](CN(C)C(=O)CCCN(C)C)OCCCC[C@H](C)O3)cc1,12.6,15.7[16.7 µM]
COc1ccccc1-c1ccc2c(c1)O[C@@H](CN(C)C(=O)Nc1ccccc1)[C@H](C)CN([C@H](C)CO)S2(=O)=O,-5.3,-53.3[16.7 µM]
Cc1noc(C)c1NC(=O)Nc1ccc2c(c1)CC(=O)N([C@@H](C)CO)C[C@H](C)[C@@H](CN(C)S(=O)(=O)c1ccccc1)O2,6.9,-17.4[16.7 µM]
CC(C)NC(=O)N(C)C[C@@H]1Oc2ccc(NC(=O)Nc3cccc4ccccc34)cc2C(=O)N([C@@H](C)CO)C[C@H]1C,-11.7,4.9[16.7 µM]

# The listing, repeating the preview:
SMILES,Yeast UUG start,HIV Env fusion
C[C@@H]1CN([C@H](C)CO)C(=O)c2cc(NC(=O)Cc3ccccc3)ccc2O[C@@H](C)CCCCO[C@@H]1CN(C)C(=O)Cc1ccccc1,2.9,-12.1[16.7 µM]
Cc1ccc(S(=O)(=O)N(C)C[C@@H]2OCCCC[C@@H](C)Oc3ccc(NC(=O)NC4CCCCC4)cc3C(=O)N([C@@H](C)CO)C[C@@H]2C)cc1,-6.2,-5.8[16.7 µM]
COc1ccc(NC(=O)Nc2ccc3c(c2)C(=O)N([C@@H](C)CO)C[C@H](C)[C@@H](CN(C)C(=O)CCCN(C)C)OCCCC[C@H](C)O3)cc1,12.6,15.7[16.7 µM]
COc1ccccc1-c1ccc2c(c1)O[C@@H](CN(C)C(=O)Nc1ccccc1)[C@H](C)CN([C@H](C)CO)S2(=O)=O,-5.3,-53.3[16.7 µM]
Cc1noc(C)c1NC(=O)Nc1ccc2c(c1)CC(=O)N([C@@H](C)CO)C[C@H](C)[C@@H](CN(C)S(=O)(=O)c1ccccc1)O2,6.9,-17.4[16.7 µM]
CC(C)NC(=O)N(C)C[C@@H]1Oc2ccc(NC(=O)Nc3cccc4ccccc34)cc2C(=O)N([C@@H](C)CO)C[C@H]1C,-11.7,4.9[16.7 µM]
C[C@@H]1CN([C@@H](C)CO)C(=O)Cc2cc(NC(=O)C3CC3)ccc2O[C@H]1CN(C)Cc1ccc(C(=O)O)cc1,-8.1,-4.2[16.7 µM]
C[C@@H]1CN([C@@H](C)CO)C(=O)c2cc(Br)cnc2O[C@@H]1CN(C)S(=O)(=O)c1ccccc1,1.1,28.8[16.7 µM]
C[C@H]1CN([C@@H](C)CO)C(=O)c2cc(NC(=O)Cn3cnnn3)ccc2O[C@@H]1CN(C)S(C)(=O)=O,-21.9,-14.9[16.7 µM]
O=C(Nc1ccc2c(c1)[C@H]1C[C@@H](CC(=O)N3CCc4ccccc4C3)O[C@H](CO)[C@H]1O2)C1CCC1,-0.8,16.5[16.7 µM]
C[C@H]1CCCCO[C@@H](CN(C)C(=O)Nc2ccc3c(c2)OCO3)[C@@H](C)CN([C@@H](C)CO)C(=O)c2cc(NC(=O)C3CCCCC3)ccc2O1,-1.4,-5.2[16.7 µM]
O=C(O)C[C@@H]1C[C@H]2c3cc(NC(=O)Nc4ccccc4F)ccc3O[C@H]2[C@@H](CO)O1,-7.8,-13.0[16.7 µM]
C[C@H](CO)N1C[C@H](C)[C@H](CN(C)Cc2ccncc2)Oc2ccc(NS(C)(=O)=O)cc2CC1=O,-7.1,-7.9[16.7 µM]
C[C@H]1CCCCO[C@@H](CN(C)S(=O)(=O)c2cn(C)cn2)[C@@H](C)CN([C@@H](C)CO)C(=O)c2cc(NC(=O)Nc3ccc(C(F)(F)F)cc3)ccc2O1,-6.4,38.1[16.7 µM]
COc1ccc(S(=O)(=O)Nc2ccc3c(c2)C(=O)N([C@@H](C)CO)C[C@@H](C)[C@@H](CN(C)C(=O)NC2CCCCC2)OCCCC[C@H](C)O3)cc1,4.3,-27.0[16.7 µM]
C[C@H](CO)N1C[C@H](C)[C@H](CN(C)Cc2ccncc2)Oc2ccc(NC(=O)c3ccncc3)cc2C1=O,41.7,-22.7[16.7 µM]
C[C@H](CO)N1C[C@H](C)[C@H](CN(C)C(=O)Nc2ccc(C(F)(F)F)cc2)Oc2ccc(NS(=O)(=O)c3cn(C)cn3)cc2C1=O,-11.8,0.3[16.7 µM]
CC(=O)N(C)C[C@@H]1Oc2cc(C#CC(C)C)ccc2S(=O)(=O)N([C@@H](C)CO)C[C@H]1C,2.1,-6.7[16.7 µM]
COc1ccc(NC(=O)Nc2ccc3c(c2)C(=O)N([C@@H](C)CO)C[C@@H](C)[C@@H](CN(C)C(=O)NC(C)C)OCCCC[C@@H](C)O3)cc1,10.8,9.2[16.7 µM]
C[C@@H]1CN([C@@H](C)CO)S(=O)(=O)c2ccc(C#Cc3ccc(F)cc3)cc2O[C@H]1CN(C)S(=O)(=O)c1cn(C)cn1,-1.3,31.0[16.7 µM]
Cc1ccc(S(=O)(=O)N(C)C[C@H]2Oc3c(NC(=O)NC4CCCCC4)cccc3C(=O)N([C@@H](C)CO)C[C@H]2C)cc1,8.7,-107.5[16.7 µM]
O=C(CN1CCOCC1)NCC[C@H]1CC[C@H](NC(=O)Cc2ccccn2)[C@@H](CO)O1,10.8,11.9[16.7 µM]
C[C@@H]1CN([C@@H](C)CO)C(=O)Cc2cc(NC(=O)Cc3ccccc3)ccc2O[C@H]1CN(C)C(=O)Nc1ccccc1,22.2,2.5[16.7 µM]
COc1ccc(CNC(=O)C[C@H]2CC[C@@H](NC(=O)c3ccc4c(c3)OCO4)[C@@H](CO)O2)cc1,-4.2,4.4[16.7 µM]
COCC1CC(c2ccccc2)OC(c2ccc(NC(=O)CCCCCCC(=O)O)cc2)O1 (stereo unspecified),18.4,-3.8[16.7 µM]
# More records follow:
SMILES,Yeast UUG start,HIV Env fusion
COCC#Cc1ccc2c(c1)O[C@H](CN(C)C(=O)COC)[C@@H](C)CN([C@H](C)CO)S2(=O)=O,25.1,6.9[16.7 µM]
COc1ccc(S(=O)(=O)Nc2cccc3c2O[C@@H](CN(C)Cc2ccc(-c4ccccc4)cc2)[C@@H](C)CN([C@@H](C)CO)C3=O)cc1,8.2,-25.4[16.7 µM]
C[C@H](CO)N1C[C@H](C)[C@@H](CN(C)Cc2ccc(C(=O)O)cc2)Oc2cc(/C=C/c3ccccc3)ccc2S1(=O)=O,7.4,-2.2[16.7 µM]
C[C@@H]1CN([C@@H](C)CO)C(=O)Cc2cc(N(C)C)ccc2O[C@H]1CN(C)Cc1ccc2c(c1)OCO2,0.4,3.2[16.7 µM]
C[C@@H]1CCCCO[C@H](CN(C)C(=O)c2ccccc2)[C@H](C)CN([C@@H](C)CO)C(=O)c2cc(NC(=O)CCCCCC(=O)Nc3ccccc3N)ccc2O1,-13.2,-220.6[16.7 µM]
C[C@H]1CN([C@@H](C)CO)C(=O)c2cccc(NC(=O)C3CC3)c2O[C@@H]1CN(C)C(=O)Nc1ccc(F)cc1,-4.7,4.5[16.7 µM]
C[C@@H]1CN([C@@H](C)CO)C(=O)c2cccc(NC(=O)c3cnccn3)c2O[C@H]1CN(C)S(=O)(=O)c1cccs1,-9.0,-21.2[16.7 µM]
Cc1ccccc1-c1cnc2c(c1)C(=O)N([C@@H](C)CO)C[C@@H](C)[C@H](CN(C)Cc1cccnc1)O2,-4.3,6.4[16.7 µM]
CCCC#Cc1ccc2c(c1)O[C@@H](CN(C)C(=O)NC(C)C)[C@H](C)CN([C@H](C)CO)S2(=O)=O,3.1,-12.8[16.7 µM]
CNC[C@H]1Oc2ccc(NC(=O)CCCN(C)C)cc2C(=O)N([C@@H](C)CO)C[C@H]1C,26.1,13.5[16.7 µM]
C[C@H](O)C#Cc1ccc2c(c1)O[C@@H](CN(C)C(=O)CN(C)C)[C@@H](C)CN([C@@H](C)CO)S2(=O)=O,14.4,8.0[16.7 µM]
C[C@H](CO)N1C[C@H](C)[C@@H](CN(C)CC2CC2)Oc2ccc(NC(=O)C3CC3)cc2CC1=O,0.6,3.3[16.7 µM]
O=C(N[C@H]1CC[C@@H](CCNC(=O)C2CCC2)O[C@@H]1CO)c1ccncc1,-9.6,7.4[16.7 µM]
O=C(C[C@H]1CC[C@H](NC(=O)C2CCOCC2)[C@H](CO)O1)Nc1nccs1,-27.0,11.7[16.7 µM]
C[C@H]1CCCCO[C@@H](CN(C)C(=O)c2ccncc2)[C@@H](C)CN([C@@H](C)CO)C(=O)c2cc(NS(C)(=O)=O)ccc2O1,11.7,2.9[16.7 µM]
COC(=O)C[C@H]1CC[C@@H]2[C@@H](COc3ccc(NC(=O)c4ccccc4)cc3C(=O)N2C)O1,4.7,-10.2[16.7 µM]
Cn1cnc(S(=O)(=O)N[C@@H]2CC[C@H](CC(=O)N3CCN(c4ccccc4)CC3)O[C@@H]2CO)c1,-0.6,10.3[16.7 µM]
COCC(=O)N[C@H]1C=C[C@H](CC(=O)NCc2ccccc2OC)O[C@@H]1CO,-19.3,-3.5[16.7 µM]
Cc1noc(C)c1S(=O)(=O)N(C)C[C@@H]1Oc2ccc(NC(=O)CCC(F)(F)F)cc2CC(=O)N([C@H](C)CO)C[C@@H]1C,1.5,-0.2[16.7 µM]
Cc1noc(C)c1NC(=O)Nc1ccc2c(c1)C(=O)N(C)[C@H]1CC[C@H](CC(=O)N(C)C)O[C@H]1CO2,-1.7,-3.6[16.7 µM]
CC(=O)N(C)C[C@@H]1Oc2ncc(C#CCC3CCCC3)cc2C(=O)N([C@H](C)CO)C[C@H]1C,-11.9,17.7[16.7 µM]
C[C@H](CO)N1C[C@H](C)[C@@H](CN(C)C(=O)Nc2ccc(F)cc2)OCc2cn(nn2)CCCC1=O,10.8,-29.8[16.7 µM]
CO[C@@H]1CN(C)C(=O)c2ccc(NC(=O)Nc3cccc(F)c3)cc2OC[C@H](C)N(C)C[C@@H]1C,-10.6,5.9[16.7 µM]
O=C(Nc1ccc2c(c1)OCO2)N[C@@H]1CC[C@@H](CC(=O)N2CCN(c3ccccc3)CC2)O[C@H]1CO,17.1,-3.0[16.7 µM]
Cc1noc(C)c1NC(=O)Nc1ccc2c(c1)CC(=O)N([C@H](C)CO)C[C@H](C)[C@H](CN(C)S(=O)(=O)c1ccccc1)O2,1.3,10.2[16.7 µM]
# Going on with the list:
SMILES,Yeast UUG start,HIV Env fusion
Cc1noc(C)c1S(=O)(=O)Nc1ccc2c(c1)C(=O)N([C@@H](C)CO)C[C@H](C)[C@H](CN(C)S(=O)(=O)c1cccs1)O2,11.5,22.4[16.7 µM]
C[C@H](CO)N1C[C@H](C)[C@H](CN(C)C(=O)Nc2cccc3ccccc23)Oc2c(NC(=O)c3cnccn3)cccc2C1=O,4.8,-7.1[16.7 µM]
Cc1ccc(S(=O)(=O)Nc2ccc3c(c2)CC(=O)N([C@H](C)CO)C[C@H](C)[C@H](CN(C)C(=O)Nc2ccc(C(F)(F)F)cc2)O3)cc1,-0.1,5.6[16.7 µM]
CCc1csc(N2[C@@H](C#N)[C@@H](c3ccc(C4=CCCC4)cc3)[C@@H]2CO)n1,0.9,4.4[16.7 µM]
O=C(N[C@@H]1CC[C@@H](CCNC(=O)c2ccccc2F)O[C@@H]1CO)c1ccc2c(c1)OCO2,-2.0,-4.2[16.7 µM]
COc1ccc(NC(=O)N[C@H]2CC[C@H](CCn3cc(-c4ccccc4)nn3)O[C@@H]2CO)cc1,-13.2,19.8[16.7 µM]
C[C@@H]1CN([C@H](C)CO)S(=O)(=O)c2ccc(C#CC3(O)CCCC3)cc2O[C@H]1CN(C)C(=O)c1ccccc1,7.8,-23.9[16.7 µM]
CCC(=O)N(C)C[C@H]1Oc2cc(-c3cccc(OC)c3)ccc2S(=O)(=O)N([C@H](C)CO)C[C@@H]1C,3.8,1.3[16.7 µM]
CCC(=O)N[C@H]1CC[C@H](CC(=O)NCC2CCCCC2)O[C@H]1CO,-14.1,8.5[16.7 µM]
COc1ccc(NC(=O)Nc2ccc3c(c2)C(=O)N([C@H](C)CO)C[C@H](C)[C@H](CN(C)Cc2ccc(C(F)(F)F)cc2)O3)cc1,4.9,23.1[16.7 µM]
C[C@H]1CN([C@@H](C)CO)S(=O)(=O)c2ccc(-c3cccnc3)cc2O[C@H]1CN(C)Cc1ccccn1,6.2,21.4[16.7 µM]
C[C@@H]1CCCCO[C@@H](CN(C)C)[C@H](C)CN([C@H](C)CO)C(=O)c2cc(NC(=O)Nc3ccc(F)cc3)ccc2O1,16.2,3.9[16.7 µM]
O=C(N[C@@H]1CC[C@@H](CCNS(=O)(=O)c2ccc(F)cc2)O[C@H]1CO)c1cccc(F)c1,-6.0,-9.1[16.7 µM]
COc1ccc(S(=O)(=O)Nc2ccc3c(c2)C(=O)N([C@H](C)CO)C[C@H](C)[C@@H](CN(C)S(=O)(=O)c2ccc(C)cc2)OCCCC[C@H](C)O3)cc1,3.6,6.9[16.7 µM]
COc1cccc(NC(=O)Nc2ccc3c(c2)OC[C@H](C)NC[C@@H](C)[C@H](OC)CN(C)C3=O)c1,-9.8,5.6[16.7 µM]
COc1ccc(S(=O)(=O)Nc2ccc3c(c2)C(=O)N([C@H](C)CO)C[C@H](C)[C@@H](CN(C)C(=O)Nc2ccc(F)cc2)OCCCC[C@@H](C)O3)cc1,-2.1,-20.0[16.7 µM]
Cc1ccc(S(=O)(=O)Nc2ccc3c(c2)CC(=O)N([C@@H](C)CO)C[C@@H](C)[C@H](CN(C)C(=O)Nc2ccc(C(F)(F)F)cc2)O3)cc1,13.0,11.2[16.7 µM]
C[C@@H]1CN([C@@H](C)CO)C(=O)c2cccc(NC(=O)Nc3cccc4ccccc34)c2O[C@H]1CN(C)C(=O)Nc1ccc2c(c1)OCO2,5.2,2.4[16.7 µM]
C[C@@H]1CN([C@@H](C)CO)C(=O)Cc2cc(NS(=O)(=O)c3cn(C)cn3)ccc2O[C@H]1CN(C)CC1CC1,-7.5,1.6[16.7 µM]

# High-throughput results as filed in PubChem BioAssay.
